Screens as filed in PubChem.
Marburg entry inh: blocks Marburg virus binding to or entry into cells. Marburg virus pseudotyped entry inhibition, cell reporter; control for the full effect not named in the record; about a third of the inactives were read at about 46 µM. Potency, µM (doses to about 37.8 µM), inactives show at the top dose activity change, negative = inhibition, hits mostly inhibitors. 300,000 tested, 1.8% active. AID 540276; active = well fitted inhibition curve with a large enough effect; inconclusive = small, poorly fitted or top-dose-only effect, or effect the other way; inactive = flat fitted curve, though single readings scatter; tested in HEK293 cells; about a fifth of its hits are not listed in these tables; further: on the % scale 0 is the no-effect control and ±100 the full control effect; luciferase read-out
Cruzain noTriton: inhibitors of Trypanosoma cruzi cruzain without detergent. 200,000 tested, 2.3% active. purified cruzain, Z-FR-AMC fluorescence, no detergent. AID 1476. P25779. Potency, µM, without a hit: max response, negative = inhibition, hits mostly inhibitors; active means well fitted curve in the direction sought with a large enough effect; inconclusive means small, poorly fitted or top-dose-only effect, or another doubt; inactive means no such curve, though single readings can be large; an effect the other way counts as inactive or inconclusive;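 further: plate controls were enzyme without inhibitor for no effect and buffer without enzyme for full effect; nearly all actives have a fitted effect of over 40% in size; top concentration of the series not given in the record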
Target sequence (P25779 123-467 limits assumed): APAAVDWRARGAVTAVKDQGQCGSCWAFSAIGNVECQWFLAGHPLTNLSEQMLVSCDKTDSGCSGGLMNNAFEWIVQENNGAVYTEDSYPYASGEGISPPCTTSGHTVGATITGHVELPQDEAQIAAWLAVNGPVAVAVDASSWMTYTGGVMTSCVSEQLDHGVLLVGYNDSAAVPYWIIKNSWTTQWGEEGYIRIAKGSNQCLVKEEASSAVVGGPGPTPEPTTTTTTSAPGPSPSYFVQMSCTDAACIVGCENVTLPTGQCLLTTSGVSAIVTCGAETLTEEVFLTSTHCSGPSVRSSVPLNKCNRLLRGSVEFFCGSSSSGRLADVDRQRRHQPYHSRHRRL
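Purified cruzain at 1.5 nM, pre-incubated 15 min with compound at room temperature in 100 mM sodium acetate pH 5.5, 5 mM DTT, 0.00005% Triton X-100. Reaction started with 2 uM Z-FR-AMC; AMC fluorescence increase over 60 s gives rate.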
LASV entry inh: inhibitors of Lassa virus binding or cell entry. Lassa virus pseudotype entry inhibition, cell reporter; control for the full effect not named in the record. Potency, µM (series often up to 37.9 µM), for the others: at the top dose activity change, negative = inhibition, usual class: inhibitors. 300,000 tested, 1.2% active; active means well fitted inhibition curve with a large enough effect; inconclusive means small, poorly fitted or top-dose-only effect, or effect the other way; inactive means flat fitted curve, though single readings scatter; tested in HEK293 cells; further: on the % scale 0 is the no-effect control and ±100 the full control effect; nearly all actives have a fitted effect of over 50% in size; luciferase read-out
NS1 function inh: blocks influenza NS1 protein function; S. cerevisiae slowed by influenza A NS1, growth recovery by OD600; Potency, µM (doses to about 46.1 µM), for inactives: top-dose activity, positive = more growth; 270,000 tested, 0.4% active; further: actives are rising curves; nearly all actives have a fitted effect of over 50% in size
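Read-out: OD600 growth recovery of NS1-expressing budding yeast. Cells grown overnight at 30C in -URA glucose medium, washed, resuspended and diluted 1:100 in 2% galactose assay medium, pH 6.0. Same strain lacking NS1 served as positive control.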
SARS PLpro yeast: blocks SARS-CoV papain-like protease in a yeast assay; S. cerevisiae expressing SARS-CoV PLpro, growth rescue; control for the full effect not named in the record; Potency, µM (series often up to 32.9 µM), inactives show top-dose activity, positive = growth rescue; 330,000 tested, 0.19% active; further: 0% is about no effect; nearly all actives have a fitted effect of over 55% in size; growth read by luminescence after 48 h
RE007 growth inh: less growth of the S. pombe RE007 Vpr strain; S. pombe RE007 Vpr strain, BacTiter-Glo ATP luminescence, 24 h; control for the full effect not named in the record; Potency, µM (series often up to 92.2 µM), for inactives: at the top dose activity change, negative = less growth; 360,000 tested, 0.21% active; AID 651644; active = well fitted falling curve with a large enough effect; inconclusive = small, poorly fitted or top-dose-only effect; inactive = no such curve, though single readings can be large or run the other way;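 further: on the % scale 0 is the no-effect control and ±100 the full control effect; nearly all actives have a fitted effect of over 50% in size; the assay follows cell death caused by Vpr and the record does not say whether a fall means rescue or toxicity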
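Fission yeast RE007 carrying one integrated HIV-1 vpr copy, seeded at OD 0.01 in PMG+AL medium with 23 nL pinned compound. Grown 24 h at 30 degrees; viability read by BacTiter-Glo luminescence after 5 min.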
StopGo reporter: FMDV 2A StopGo reporter, luciferase signal | human cells with a luciferase reporter of 2A StopGo recoding; control for the full effect not named in the record | Potency, µM (highest dose often 57.9 µM), without a hit: at the highest dose signal change, negative = less light | 410,000 tested, 1.2% active | AID 1159524; active = well fitted falling curve with a large enough effect; inconclusive = small, poorly fitted or top-dose-only effect; inactive = no such curve, though single readings can be large or run the other way; tested in HEK293T cells; further: on the % scale 0 is the no-effect control and ±100 the full control effect; nearly all actives have a fitted effect of over 45% in size; luciferase light after 4 h
Cruzain inh Det: inhibitors of Trypanosoma cruzi cruzain with detergent | 200,000 tested, 0.43% active | Potency, µM, without a hit: max response, negative = inhibition, usual class: inhibitors | purified cruzain, Z-FR-AMC fluorescence, 0.01% Triton | P25779 | AID 1478; active means well fitted curve in the direction sought with a large enough effect; inconclusive means small, poorly fitted or top-dose-only effect, or another doubt; inactive means no such curve, though single readings can be large; an effect the other way counts as inactive or inconclusive;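 further: plate controls were neutral wells for no effect and buffer without enzyme for full effect; nearly all actives have a fitted effect of over 40% in size; top concentration of the series not given in the record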
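Cruzain (1.5 nM) preincubated 15 min at RT with compound in 100 mM sodium acetate pH 5.5, 5 mM DTT, 0.01% Triton X-100. Reaction started with 2 uM Z-FR-AMC; AMC fluorescence (ex 360/em 450 nm) change over 60 s gave rate.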
Starred values were filed as active, the others as inactive; ? = inconclusive; / = no result given; & = joins results of further samples; [ ] = remark or other dose. Unless noted, the call rests on the fitted dose curve; in most records, active means well fitted rising curve with a large enough effect; inconclusive means small, poorly fitted or top-dose-only effect; inactive means no such curve, though single readings can be large or run the other way. Potency means the concentration at half of the fitted maximal effect.

Structure,Marburg entry inh,Cruzain noTriton,LASV entry inh,NS1 function inh,SARS PLpro yeast,RE007 growth inh,StopGo reporter,Cruzain inh Det
CN(C)CCSc1nc(-c2ccccc2)nc2c1CCCC2,?,/,?,-2%,0%,-6%,-14%,/
COc1ccc(-c2cc(C(F)(F)F)nc(S(=O)(=O)CCCC(=O)Nc3cccc(O)c3)n2)cc1OC,?,11%,?,/,-2%,-11%,20µM*,-8.5%
O=C(CNCc1ccco1)Nc1cc(S(=O)(=O)N2CCOCC2)ccc1N1CCOCC1,1%[46.1 µM],/,1%[46.1 µM],/,-5%,8%,-10%,/
COc1ccc(OCc2cc(C(=O)N(C)C3CCOCC3)no2)c2ccccc12,/,/,/,-26%,-4%,-8%,16%,/
CCCS(=O)(=O)N1CCC(N2CCN(Cc3ccc(F)cc3)C(=O)C2=O)CC1,/,-2%,-7%[46.1 µM],/,/,/,-20%,1.9%
COc1ccc(OC)c(NC=C2C(=O)OC3(CCCCC3)OC2=O)c1,2%,-6%,-3%,-31%,-1%,-16%,-7%,-8.9%
CCOC(=O)C1(Cc2ccccc2C)CCCN(C(=O)CCC(=O)OC)C1 (stereo not given),-22%,/,-17%,17%,2%,-12%,5%,/
N#C/C(=C\c1cccc([N+](=O)[O-])c1)C(=O)NCc1ccc(Cl)cc1,?,/,0%,/,0%,-29%,?,/
COc1ccc(NC(=O)c2cc3c(=O)n(C)c4ccccc4c3n2C)cc1OC,-3%,?,/,-2%,0%,-15%,-16%,-5.0%
COc1ccccc1-c1nc2c(c(SCC(=O)Nc3ccc(C)c(C)c3)n1)Cc1c(CO)cnc(C)c1O2,/,?,-14%[46.1 µM],/,/,/,-27%,-15%
COc1ccc(NS(=O)(=O)c2cn(C)nc2C)cc1,-4%[46.1 µM],/,27%[46.1 µM],-3%,-3%,-2%,2%,/
O=C(/C=C/c1ccc(Cl)cc1Cl)NCCSc1ccccc1,3%,0%,-16%,-39%,-42%,-7%,-8%,-5.8%
COc1ccccc1N1CCN(C(=O)c2cc(-c3ccc(Cl)cc3)on2)CC1,-2%,?,5%,-11%,9%,9%,-18%,-4.4%
COCCCNC(=S)Nc1cccc(S(=O)(=O)NC2=NCCC2)c1,18%[46.1 µM],/,17%[46.1 µM],3%,1%,12%,-5%,/
CCCC1=Nc2cc(C(=O)NCc3ccco3)ccc2Sc2ccccc21,?,-13%,?,7%,-24%,-12%,1%,-7.1%
CCOC(=O)c1cc(S(=O)(=O)N2CCN(c3cc(C)ccc3C)CC2)[nH]n1,/,12%,-5%[46.1 µM],/,/,/,-1%,-11%
CC(C)(C)NS(=O)(=O)c1ccc(NC(=S)NC(=O)C2CCC2)cc1,-10%,/,-30%,15%,7%,-4%,21%,/
CCC(O)c1cc2c(cc1NC(=O)c1cccs1)OCCO2 (stereo not given),?,-10%,-23%,-13%,1%,-2%,-17%,3.6%
COc1ccc2cc(C)c3nnc(SCc4cccnc4)n3c2c1,11%[46.1 µM],/,5%[46.1 µM],/,1%,5%,-3%,/
Cc1ccc(OCCCC(=O)N(C)CC(=O)Nc2ccccc2Cl)cc1,2%,/,-28%,/,4%,1%,-12%,/
Cc1ccc(S(=O)(=O)N2CC(O)CC2C(=O)O)cc1 (stereo not given),7%,/,10%,10%,0%,10%,2%,/
Brc1ccc(OCc2nnc(SCC3CCCCC3)o2)cc1,-6%,-6%,-7%,-6%,-5%,-8%,-16%,-6.1%
COc1cccc(CNC(=O)CCCn2c(=O)c3cccn3c3cccnc32)c1OC,/,?,18%[46.1 µM],/,/,/,-12%,-0.9%
CCCCn1c(N)c(N(CCC(C)C)C(=O)COC(=O)c2ccc3ccccc3c2)c(=O)[nH]c1=O,13%[46.1 µM],/,4%,/,-3%,2%,-10%,/
CCCN1C2=NCCN2c2cc(C)c(C)cc21,?,-4%,2%,-7%,-5%,10%,-26%,2.4%
COc1ccccc1CNC(=O)c1ccccc1NC(=O)C1=C(C)OCCS1,/,/,/,-11%,0%,0%,-27%,/
O=C(COC(=O)C1CCN(S(=O)(=O)c2cc([N+](=O)[O-])ccc2Cl)CC1)Nc1ncc(Cl)cc1Cl,20%,-27%,0%,-6%,-2%,15%,20%,-18%
Cc1c(=O)n(OCc2ccc(Cl)cc2)c2ccccc2[n+]1[O-],6%[46.1 µM],/,-16%,-3%,0%,-4%,-16%,/
Nn1cnnc1SC1CCCCC1NS(=O)(=O)c1ccccc1 (stereo not given),-4%,3%,8%,8%,1%,-2%,-11%,7.1%
Cc1ccc(NC(=S)NNC(=O)c2c([N+](=O)[O-])c(C)nn2C)cc1,?,22%,19%,5%,0%,4%,-12%,2.2%
Cc1sccc1/C=N/NC(=O)c1cccc2ccccc12,17%,?,2%,-1%,16%,-20%,19%,-3.4%
COc1ccc(S(=O)(=O)Cc2ccc(C(=O)N3CCC4(CC3)OCCO4)o2)cc1,5%,-13%,10%,-6%,4%,-11%,13%,2.9%
CCOC(=O)C1CCCN(S(=O)(=O)c2ccc(OC)c3ccccc23)C1 (stereo not given),10%,9%,4%,-25%,-8%,8%,-4%,-6.3%
Cc1nc(NCc2ccco2)c2c3c(sc2n1)CCC3,?,-1%,-3%,-66%,-9%,-19%,?,-4.4%
O=C(Nc1cc(=O)c2ccccc2o1)N1CCOCC1,?,11%,?,?,0%,1%,-3%,0.1%
COc1ccc(CCC(=O)NNC(=O)Nc2cccc(Cl)c2)cc1,/,/,/,13%,1%,9%,26%,/
CCCCn1c(=O)[nH]c(=O)c2c1nc(-c1ccc(-c3ccccc3Br)o1)n2CC,-23%,-5%,-13%,-3%,-19%,-5%,0%,-3.6%
CCN(CC)S(=O)(=O)c1ccc(NC(=O)CCc2c(C)nc3cc(-c4ccc(Cl)cc4)nn3c2C)cc1,?,?,?,/,/,/,?,-0.5%
O=C(CCl)NCCCCCCCCCNC(=O)CCl,8.9µM*,0%,?,-45%,?,34%,-22%,-2.6%
Cc1cc(C)nc(SCCn2c(N3CCC(C)CC3)nc3c2c(=O)n(C)c(=O)n3C)n1,-8%,8%,/,-1%,5%,/,/,1.9%
Cc1cccc(CN2CCSc3sccc3C2=O)c1,-8%[14.2 µM],/,14%,-5%,-3%,-19%,1%,/
COc1cc(/C=C\C(=O)NCc2ccc3c(c2)cc(C)n3C)cc(OC)c1OC,5.2µM*,?,?,?,1%,3%,?,-4.8%
CN(Cc1ccccc1)C(=O)CN1C(=O)COc2ccc(S(=O)(=O)N3CCCC3)cc21,5%[46.1 µM],/,3%[46.1 µM],7%,7%,4%,22%,/
COc1ccc(CN2CCN(S(=O)(=O)c3ccccc3)CC2)c(OC)c1,-29%,0%&-5%,?,-6%,-1%,6%,-29%&-25%,1.5%&-0.9%
CCN(CC)C(=O)CSc1nc(COc2ccccc2)nc2ccccc12,/,/,/,-6%,-2%,3%,-14%,/
O=C(CN1CCN(S(=O)(=O)c2ccccc2)CC1)Nc1cccc(C(F)(F)F)c1,-30%,28%,?,-48%,0%,0%,-8%,-8.9%
Cc1ccccc1OC(=O)n1c(=S)oc2cc(Cl)ccc21,?,18%,-1%,-36%,-30%,?,-4%,2.1%
CCCc1cc(=O)n2[nH]c(-c3ccc(Br)cc3)cc2n1,?,1%,-3%,-14%,-1%,-2%,-9%,-0.6%
CCCCOc1cccc(OCC(=O)Nc2nc3ccccc3[nH]2)c1,-7%,-6%,7%,-11%,11%,17%,-4%,-1.9%
COc1cc2ncnc(NCc3ccccc3)c2cc1OC,?,-12%,-2%,12%,4%,0%,-23%,-0.1%
Cc1ccc(CNC(=O)c2ccc(Cn3nc(C)cc3C)o2)cc1,/,/,/,0%,-1%,0%,-18%,/
C(=C\c1ccc2ccccc2n1)/c1ccccc1,/,/,/,-43%,-7%,?,-84%,/
Cc1noc(/C=C/N(C)C)c1S(=O)(=O)N1CCN(c2ccccc2)CC1,/,-7%,/,-24%,-14%,11%,-26%,-6.9%
S=c1nc(-c2ccccc2)[nH]c2ccc(Br)cc12,19%,/,3%,-1%,0%,7%,1%,/
Cc1ccccc1N=C1NC(=O)/C(=C/c2cccn2C)S1,/,/,/,-3%,0%,-14%,-4%,/
Cc1cc(O)c2c(C)c(CC(=O)N3C[C@H]4C[C@@H](C3)c3cccc(=O)n3C4)c(=O)oc2c1,/,/,/,9%,7%,-15%,-12%,/
COc1cccc(-c2cn(C[C@H]3CC[C@@H]([C@@H]4CC[C@H](Cn5cc(-c6cccc(OC)c6)nn5)O4)O3)nn2)c1,/,/,/,-14%,-3%,0%,-15%,/
C=C(C)C(=O)Nc1cccc(C2=NOC3(C2)C[C@H](C(N)=O)N(C(=O)COc2ccc(Cl)cc2)C3)c1 (stereo not given in full),/,/,/,-3%,2%,6%,-13%,/
COc1ccc2cc(OCC(=O)NNC(=O)Nc3ccc(F)cc3)ccc2c1,1%,/,2%,9%,2%,-3%,0%,/
CCC(=O)N1CCc2cc(S(=O)(=O)NCCC(=O)N3CCN(Cc4ccccc4)CC3)ccc21,0%&0%,7%,-10%,-5%,6%,3%,-12%,4.3%

New compounds follow
Structure,Marburg entry inh,Cruzain noTriton,LASV entry inh,NS1 function inh,SARS PLpro yeast,RE007 growth inh,StopGo reporter,Cruzain inh Det
Cc1cccc(Cn2c(C(C)O)nc3ccccc32)c1 (stereo not given),-29%&-29%,7%,17%,-39%,1%,25%,?,-2.3%
CCn1c(-c2cc(-c3ccc(OC(C)C)cc3)nc3ccccc23)n[nH]c1=S,?,12%,0%,22%,9%,1%,37%[activator],-5.2%
Nc1ncc2c(n1)-c1cc(Cl)ccc1SC2,?,/,/,11%,-1%,4%,-10%,/
Cc1nnc(SCC(=O)Nc2ccc3c(c2)OCO3)n(N)c1=O,0%[46.1 µM],/,-5%[46.1 µM],/,0%,-4%,7%,/
